Source: PubChem BioAssay (Broad Institute)
A1 apoptosis 2 = A1 inhibition read as caspase activation | caspase activation, % (test concentration not listed) | 24,000 tested, under 10 active | MEF A1-2A-BIM cells, caspase-Glo luminescence, 3 h; percent of clofoctol response, DMSO zero; in the data active = caspase activation above about 5.9%;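 also: wells of about 30 µL received 50 nL stock; the first replicate is given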
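Evaluation: Caspase-3/7 activity from luminescence increase | Assay system: A1-2A-BIM mouse embryonic fibroblasts | Quantity: 2500 MEF cells/well | Medium: RPMI-1640 plus 10% FBS | Detection: Caspase-Glo 3/7 luminescence, 1 h at room temperature | Dosing: 50 nL compound per well, pinned | Timing: Cells settled overnight, compound exposure 3 h at 37 °C, 5% CO2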
Starred values were filed as active, the others as inactive.

| smiles | A1 apoptosis 2 |
| --- | --- |
| C[C@@H]1CN([C@@H](C)CO)C(=O)Cc2cc(NC(=O)C3CCCCC3)ccc2O[C@H]1CN(C)Cc1ccc(Cl)c(Cl)c1 | 0.7 |
| C[C@@H]1CCCCO[C@@H](CN(C)S(=O)(=O)c2cccs2)[C@@H](C)CN([C@@H](C)CO)C(=O)c2cc(NC(=O)CCC(F)(F)F)ccc2O1 | 0.8 |
| CC(C)NC(=O)N(C)C[C@@H]1Oc2c(NC(=O)C3CCOCC3)cccc2C(=O)N([C@H](C)CO)C[C@@H]1C | 0.7 |
| Cc1noc(C)c1NC(=O)Nc1ccc2c(c1)C(=O)N([C@@H](C)CO)C[C@@H](C)[C@@H](CN(C)S(=O)(=O)c1cn(C)cn1)O2 | 0.5 |
| CC(C)NC(=O)N(C)C[C@@H]1Oc2c(NC(=O)Nc3ccccc3)cccc2C(=O)N([C@H](C)CO)C[C@H]1C | 1.1 |
| N#Cc1ccc(/C=N/NC(=O)CCCCCC(=O)NO)cc1 | -0.6 |
| COc1ccc(CN(C)C[C@H]2Oc3c(NC(=O)c4ccc(-c5nccs5)cc4)cccc3C(=O)N([C@H](C)CO)C[C@@H]2C)cc1 | -0.7 |
| C[C@@H]1CCCCO[C@@H](CN(C)CC2CC2)[C@@H](C)CN([C@H](C)CO)C(=O)c2cc(N(C)C)ccc2O1 | -1.1 |
| C[C@H](CO)N1C[C@H](C)[C@H](CN(C)S(=O)(=O)c2ccc(Cl)cc2)Oc2ccc(N(C)C)cc2C1=O | -0.2 |
| C[C@@H]1CN([C@H](C)CO)C(=O)c2cc(NC(=O)C3CC3)ccc2O[C@H]1CN(C)C(=O)Nc1ccc(C(F)(F)F)cc1 | -0.3 |

Rewritten as labelled records: entries from further up
Cc1noc(C)c1NC(=O)Nc1ccc2c(c1)C(=O)N([C@@H](C)CO)C[C@@H](C)[C@@H](CN(C)S(=O)(=O)c1cn(C)cn1)O2
  A1 apoptosis 2 = 0.5

CC(C)NC(=O)N(C)C[C@@H]1Oc2c(NC(=O)C3CCOCC3)cccc2C(=O)N([C@H](C)CO)C[C@@H]1C
  A1 apoptosis 2 = 0.7

(next part)
| smiles | A1 apoptosis 2 |
| --- | --- |
| C[C@H](CO)N1C[C@H](C)[C@H](CN(C)C(=O)Nc2ccc3c(c2)OCO3)Oc2c(NS(=O)(=O)c3ccc(Cl)cc3)cccc2C1=O | 1.2 |
| C[C@@H]1CN([C@@H](C)CO)C(=O)Cc2cc(NS(=O)(=O)c3cccs3)ccc2O[C@@H]1CN(C)C(=O)Nc1ccc(C(F)(F)F)cc1 | -0.2 |
| COc1ccc(NC(=O)Nc2ccc3c(c2)CC(=O)N([C@H](C)CO)C[C@H](C)[C@@H](CN(C)C)O3)cc1 | -1.3 |
| C[C@@H]1CCCCO[C@@H](CN(C)S(C)(=O)=O)[C@@H](C)CN([C@@H](C)CO)C(=O)c2cc(NC(=O)CCCN(C)C)ccc2O1 | -0.1 |
| C[C@@H]1CN([C@@H](C)CO)C(=O)c2cccc(NC(=O)NC3CCCCC3)c2O[C@@H]1CN(C)C(=O)Nc1ccccc1 | -1.6 |
| C[C@@H]1CN([C@@H](C)CO)C(=O)c2cc(NS(=O)(=O)c3cccs3)ccc2O[C@H]1CN(C)Cc1ccccc1 | 0.3 |
| C[C@@H]1CCCCO[C@@H](CN(C)Cc2ccc(C(=O)O)cc2)[C@H](C)CN([C@@H](C)CO)C(=O)c2cc(NC(=O)c3ccccc3)ccc2O1 | -0.6 |
| COc1ccc(NC(=O)Nc2ccc3c(c2)C(=O)N([C@H](C)CO)C[C@@H](C)[C@H](CN(C)C(=O)Nc2ccc4c(c2)OCO4)OCCCC[C@@H](C)O3)cc1 | -0.4 |
| C[C@H]1CN([C@@H](C)CO)C(=O)c2cccc(NC(=O)Nc3ccc(C(F)(F)F)cc3)c2O[C@@H]1CN(C)C | -0.4 |
| CCO[C@H]1OC(C(=O)NCc2ccccc2)=C[C@@H](C2CC2)[C@@H]1CCCO | 1.6 |
| C[C@H](CO)N1C[C@H](C)[C@@H](CN(C)C)OCCCC[C@H](C)Oc2ccc(NC(=O)c3ccncc3)cc2C1=O | -1.6 |
| CC(C)NC(=O)Nc1ccc2c(c1)CC(=O)N([C@@H](C)CO)C[C@H](C)[C@H](CN(C)S(=O)(=O)c1ccc(Cl)cc1)O2 | -0.8 |
| CNC[C@H]1OCCCC[C@@H](C)Oc2ccc(NS(=O)(=O)c3cccs3)cc2C(=O)N([C@H](C)CO)C[C@@H]1C | 0.7 |
| CNC[C@@H]1OCCCC[C@H](C)Oc2ccc(NC(=O)NC(C)C)cc2C(=O)N([C@H](C)CO)C[C@@H]1C | 0.2 |
| C[C@H]1CN([C@@H](C)CO)C(=O)c2cc(NS(=O)(=O)c3ccc(Cl)cc3)ccc2O[C@@H]1CN(C)S(=O)(=O)c1ccc(Cl)cc1 | -0.5 |
| C[C@@H]1CN([C@@H](C)CO)C(=O)c2cc(NS(=O)(=O)c3ccccc3)ccc2O[C@@H](C)CCCCO[C@H]1CN(C)C(=O)C1CCCCC1 | 1.8 |
| COc1ccc(S(=O)(=O)Nc2ccc3c(c2)C(=O)N([C@@H](C)CO)C[C@H](C)[C@@H](CN(C)Cc2ccc4c(c2)OCO4)OCCCC[C@@H](C)O3)cc1 | 1.4 |
| C[C@H]1CN([C@@H](C)CO)C(=O)Cc2cc(NC(=O)CCN3CCOCC3)ccc2O[C@@H]1CN(C)S(=O)(=O)c1ccc(F)cc1 | -0.7 |
| C[C@@H]1CCCCO[C@H](CN(C)S(=O)(=O)c2cn(C)cn2)[C@H](C)CN([C@@H](C)CO)C(=O)c2cc(NC(=O)C3CCCCC3)ccc2O1 | 1.0 |
| C[C@@H]1CN([C@H](C)CO)C(=O)c2cccc(NC(=O)NC3CCCCC3)c2O[C@H]1CN(C)S(=O)(=O)c1cccs1 | 0.9 |
| C[C@H]1CCCCO[C@@H](CN(C)C(=O)Nc2ccc3c(c2)OCO3)[C@@H](C)CN([C@@H](C)CO)C(=O)c2cc(N(C)C)ccc2O1 | -0.1 |
| COc1ccc(S(=O)(=O)Nc2cccc3c2O[C@@H](CN(C)Cc2ccc(Cl)c(Cl)c2)[C@@H](C)CN([C@H](C)CO)C3=O)cc1 | -0.4 |
| COc1ccc([C@H]2C[C@H]3C(I)=CC2C(=O)[C@]32CO2)cc1OC | 0.1 |
| C[C@@H]1CCCCO[C@@H](CN(C)Cc2ccc(C(=O)O)cc2)[C@H](C)CN([C@@H](C)CO)C(=O)c2cc(NC(=O)Nc3ccc(C(F)(F)F)cc3)ccc2O1 | -0.5 |
| C[C@H]1CN([C@@H](C)CO)C(=O)c2cc(NC(=O)CCC(F)(F)F)ccc2O[C@@H]1CN(C)Cc1ccccc1 | -0.7 |
| Cc1noc(C)c1NC(=O)Nc1ccc2c(c1)C(=O)N([C@H](C)CO)C[C@H](C)[C@H](CN(C)C(=O)CCCN(C)C)OCCCC[C@@H](C)O2 | -1.6 |
| C[C@@H]1CCCCO[C@@H](CN(C)C)[C@@H](C)CN([C@H](C)CO)C(=O)c2cc(NS(=O)(=O)c3ccccc3)ccc2O1 | 0.0 |
| COc1ccc(NC(=O)N(C)C[C@H]2OCCCC[C@@H](C)Oc3ccc(NC(=O)C4CCCCC4)cc3C(=O)N([C@@H](C)CO)C[C@@H]2C)cc1 | -0.9 |
| C=CC[C@]1(C(=O)N2CCOCC2)COC(c2ccc(OCCCO)cc2)=N1 | -0.3 |
| CNC[C@@H]1Oc2ccc(NC(=O)CCC(F)(F)F)cc2C(=O)N([C@H](C)CO)C[C@H]1C | 0.7 |
| CC(/C=C/C(=O)NO)=C\c1ccccc1OCc1cn(CCNC(=O)Nc2ccccc2)nn1 | -0.2 |
| C[C@H](CO)N1C[C@H](C)[C@H](CN(C)C(=O)C2CCCCC2)OCCCC[C@H](C)Oc2ccc(NC(=O)CCC(F)(F)F)cc2C1=O | 0.7 |
| C[C@@H]1CN([C@@H](C)CO)C(=O)c2cc(NC(=O)NC3CCCCC3)ccc2O[C@@H](C)CCCCO[C@@H]1CN(C)C(=O)c1ccccc1 | -0.9 |
| C[C@@H]1CN([C@H](C)CO)C(=O)c2cc(NC(=O)Nc3ccc(C(F)(F)F)cc3)ccc2O[C@H]1CN(C)Cc1ccc(-c2ccccc2)cc1 | -0.1 |
| COc1ccc(S(=O)(=O)N(C)C[C@H]2Oc3ccc(NC(=O)CCN4CCOCC4)cc3CC(=O)N([C@@H](C)CO)C[C@@H]2C)cc1 | -0.3 |
| C[C@H](CO)N1C[C@H](C)[C@@H](CN(C)S(C)(=O)=O)Oc2ccc(NC(=O)Nc3ccc(F)cc3)cc2C1=O | -0.3 |
| CCCN(C)C[C@@H]1OCCCC[C@H](C)Oc2ccc(NC(=O)CCCN(C)C)cc2C(=O)N([C@H](C)CO)C[C@@H]1C | 0.4 |
| COc1ccc(NC(=O)Nc2ccc3c(c2)C(=O)N([C@@H](C)CO)C[C@@H](C)[C@H](CN(C)S(=O)(=O)c2ccc(F)cc2)OCCCC[C@@H](C)O3)cc1 | 0.2 |
| C[C@H](CO)N1C[C@H](C)[C@H](CN(C)C)OCc2cnnn2CCCC1=O | 0.9 |
| C[C@H]1CN([C@@H](C)CO)C(=O)CCCn2nncc2CO[C@H]1CN(C)S(=O)(=O)c1ccc(Cl)cc1 | -1.0 |
| Cc1ccc(S(=O)(=O)Nc2ccc3c(c2)C(=O)N([C@@H](C)CO)C[C@H](C)[C@H](CN(C)S(=O)(=O)c2ccc(Cl)cc2)OCCCC[C@@H](C)O3)cc1 | -2.2 |
| C[C@@H]1CN([C@@H](C)CO)C(=O)c2cc(NS(=O)(=O)c3cn(C)cn3)ccc2O[C@H]1CN(C)Cc1ccc2c(c1)OCO2 | -1.0 |
| Cc1ccc(S(=O)(=O)Nc2ccc3c(c2)C(=O)N([C@H](C)CO)C[C@H](C)[C@@H](CN(C)Cc2ccc(C(=O)O)cc2)OCCCC[C@H](C)O3)cc1 | 1.3 |
| COc1ccc(S(=O)(=O)N(C)C[C@@H]2Oc3ccc(NS(C)(=O)=O)cc3C(=O)N([C@@H](C)CO)C[C@@H]2C)cc1 | 0.9 |
| C[C@@H]1CCCCO[C@H](CN(C)Cc2ccncc2)[C@H](C)CN([C@@H](C)CO)C(=O)c2cc(NC(=O)NC3CCCCC3)ccc2O1 | 0.0 |
| C[C@H]1CN([C@@H](C)CO)C(=O)c2cccc(NC(=O)C3CCCCC3)c2O[C@H]1CN(C)S(=O)(=O)c1ccccc1 | -1.0 |
| C[C@H]1CN([C@@H](C)CO)C(=O)Cc2cc(NC(=O)Nc3ccc(F)cc3)ccc2O[C@H]1CN(C)C(=O)NC1CCCCC1 | -1.4 |
| C[C@H]1CCCCO[C@@H](CN(C)CC2CCCCC2)[C@@H](C)CN([C@@H](C)CO)C(=O)c2cc(NS(=O)(=O)c3ccccc3)ccc2O1 | -1.5 |
| COc1ccc(CN(C)C[C@@H]2OCCCC[C@H](C)Oc3ccc(NC(=O)Nc4ccc(OC)cc4)cc3C(=O)N([C@H](C)CO)C[C@@H]2C)cc1 | 0.9 |
| O=S(=O)(N[C@@H]1CCCN(Cc2ccc(OCCO)cc2)C1)c1cccc2cccnc12 | -0.9 |

Additional records follow.
| smiles | A1 apoptosis 2 |
| --- | --- |
| C[C@H]1CN([C@@H](C)CO)C(=O)c2cccc(NC(=O)Nc3cccc4ccccc34)c2O[C@H]1CN(C)Cc1ccncc1 | 0.2 |
| COc1ccc(NC(=O)N(C)C[C@H]2Oc3c(NS(=O)(=O)c4ccc(F)cc4)cccc3C(=O)N([C@@H](C)CO)C[C@H]2C)cc1 | -0.9 |
| Cc1noc(C)c1NC(=O)Nc1ccc2c(c1)CC(=O)N([C@H](C)CO)C[C@H](C)[C@@H](CN(C)C(=O)NC1CCCCC1)O2 | -0.6 |
| C[C@H](CO)N1C[C@H](C)[C@@H](CN(C)C(=O)Nc2ccc(F)cc2)Oc2ccc(NC(=O)Cc3ccccc3)cc2C1=O | -1.4 |
| C[C@H](CO)N1C[C@H](C)[C@H](CN(C)Cc2ccc(C(=O)O)cc2)Oc2c(NC(=O)NC3CCCCC3)cccc2C1=O | 0.0 |
| C[C@@H]1CN([C@H](C)CO)C(=O)Cc2cc(NS(=O)(=O)c3ccc(Cl)cc3)ccc2O[C@H]1CN(C)Cc1ccc(C(F)(F)F)cc1 | -0.1 |
| C[C@@H]1CCCCO[C@H](CN(C)C(=O)c2ccncc2)[C@@H](C)CN([C@H](C)CO)C(=O)c2cc(NC(=O)CCCN(C)C)ccc2O1 | 0.1 |
| Cc1noc(C)c1S(=O)(=O)Nc1ccc2c(c1)C(=O)N([C@H](C)CO)C[C@@H](C)[C@H](CN(C)C(=O)NC(C)C)O2 | 1.1 |
| COC(=O)CCCCCCC(=O)Nc1ccc(C=O)cc1 | -0.2 |
| C[C@@H]1CN([C@H](C)CO)C(=O)c2cccc(NS(C)(=O)=O)c2O[C@@H]1CN(C)S(=O)(=O)c1cn(C)cn1 | 0.4 |
| C[C@@H]1CN([C@@H](C)CO)C(=O)c2cc(NC(=O)CCC(F)(F)F)ccc2O[C@@H](C)CCCCO[C@@H]1CN(C)C(=O)Nc1ccccc1 | 1.2 |

Among those listed so far, these have a thiophene ring, fused or not.
| smiles | A1 apoptosis 2 |
| --- | --- |
| C[C@@H]1CCCCO[C@@H](CN(C)S(=O)(=O)c2cccs2)[C@@H](C)CN([C@@H](C)CO)C(=O)c2cc(NC(=O)CCC(F)(F)F)ccc2O1 | 0.8 |
| C[C@@H]1CN([C@@H](C)CO)C(=O)Cc2cc(NS(=O)(=O)c3cccs3)ccc2O[C@@H]1CN(C)C(=O)Nc1ccc(C(F)(F)F)cc1 | -0.2 |
| C[C@@H]1CN([C@@H](C)CO)C(=O)c2cc(NS(=O)(=O)c3cccs3)ccc2O[C@H]1CN(C)Cc1ccccc1 | 0.3 |
| CNC[C@H]1OCCCC[C@@H](C)Oc2ccc(NS(=O)(=O)c3cccs3)cc2C(=O)N([C@H](C)CO)C[C@@H]1C | 0.7 |
| C[C@@H]1CN([C@H](C)CO)C(=O)c2cccc(NC(=O)NC3CCCCC3)c2O[C@H]1CN(C)S(=O)(=O)c1cccs1 | 0.9 |

Only part of the results is shown. The share of hits here may be higher or lower than overall.
